Screening results from PubChem BioAssay.
Fibroblast inh: blocks proliferation of human lung fibroblasts | LL 47 human lung fibroblast viability, ATP luminescence; stronger effect = lower value | viability, % at 10 µM | 1.1% of 85,000 active | AID 719;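 active means viability at or below 50% in the single dose screen; inactive means viability above 50%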;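 further: compound exposure lasted 72 h before the ATP readout; 100% = median luminescence of untreated cell-only wells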
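Material: Human LL 47 lung fibroblast cells | Input: 1,150 cells/well | Buffer or medium: IMEM plus 15% FBS | Compound dosing: 0.1% DMSO in all compound wells | Times: Overnight cell rest, 72 h compound treatment at 37 °C | Signal: CellTiter-Glo luminescence measuring cellular ATP | Measure: % viability versus median cells-only luminescence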
ERa SRC1 inh: blocks coactivator binding to human estrogen receptor alpha; TR-FRET ER-alpha LBD / SRC-1 peptide, estradiol-bound; inhibition, % at 25.6 µM; 1.7% of 86,000 active; AID 629; in the data active means inhibition above about 50%;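 further: 0% = receptor plus peptide control and 100% = peptide only without receptor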
ERa coact pot: ER-alpha (human) coactivator binding potentiation; TR-FRET ERalpha-LBD/SRC-Cy5 coactivator binding, 2 h; 100 = basal binding, no effect; coactivator binding (% of control), % at 25.6 µM; 1.3% of 86,000 active; AID 639; in the data active means activity above about 200%;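 further: binding measured in presence of low estradiol as agonist stimulus; 0% = peptide alone without receptor and 100% = receptor with peptide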
ERb SRC1 inh: ER-beta (human) coactivator binding inhibition; inhibition, % at 25.6 µM; 1.3% of 86,000 active; TR-FRET ER-beta LBD / SRC1-Cy5 peptide binding; receptor agonist-loaded with 1 µM estradiol;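 active means compounds whose percent inhibition of the receptor-coactivator binding signal exceeds about 50% in the single-dose screen, limit read from the data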;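 further: 0% = receptor plus peptide wells without compound and 100% = peptide-only wells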
Target sequence (Q92731 whole entry, looked up, the tested form may be a part): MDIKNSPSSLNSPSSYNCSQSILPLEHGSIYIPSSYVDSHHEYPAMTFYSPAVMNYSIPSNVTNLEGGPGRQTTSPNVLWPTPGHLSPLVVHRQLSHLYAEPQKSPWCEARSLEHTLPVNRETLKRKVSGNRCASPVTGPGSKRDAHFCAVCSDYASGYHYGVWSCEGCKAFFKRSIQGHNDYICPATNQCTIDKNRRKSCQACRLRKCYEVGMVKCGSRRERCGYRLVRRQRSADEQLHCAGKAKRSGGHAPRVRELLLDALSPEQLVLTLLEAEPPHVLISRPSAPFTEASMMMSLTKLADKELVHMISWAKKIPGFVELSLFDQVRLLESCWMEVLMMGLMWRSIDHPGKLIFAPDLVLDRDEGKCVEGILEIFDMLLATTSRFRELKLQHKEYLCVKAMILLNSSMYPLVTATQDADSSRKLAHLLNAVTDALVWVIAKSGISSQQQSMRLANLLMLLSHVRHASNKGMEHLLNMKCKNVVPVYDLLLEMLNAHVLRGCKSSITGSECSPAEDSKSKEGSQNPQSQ
H69AR growth 86K: blocks growth of human H69AR lung tumor cells; H69AR lung tumor viability, ATP luminescence, 72 h; stronger effect = lower value; viability, % at 10 µM; 6% of 85,000 active; AID 598;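 active means viability at or below 40%; inactive means viability above 40%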;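 further: multidrug resistant small cell line overexpressing MRP-1 efflux transporter; 100% = mean luminescence of untreated control wells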
Smad3 inh: inhibitors of human Smad3 transcription factor binding. TR-FRET Smad3/Dy647-FoxH1 peptide binding, europium anti-His. inhibition, % at 25 µM. 0.29% of 88,000 active;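 active means compounds that reduce the energy-transfer binding signal between the protein and its labelled peptide by more than half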;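 further: 0% = Smad3 plus labelled peptide maximal FRET and 100% = peptide-only background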
Target sequence (P84022 whole entry, looked up): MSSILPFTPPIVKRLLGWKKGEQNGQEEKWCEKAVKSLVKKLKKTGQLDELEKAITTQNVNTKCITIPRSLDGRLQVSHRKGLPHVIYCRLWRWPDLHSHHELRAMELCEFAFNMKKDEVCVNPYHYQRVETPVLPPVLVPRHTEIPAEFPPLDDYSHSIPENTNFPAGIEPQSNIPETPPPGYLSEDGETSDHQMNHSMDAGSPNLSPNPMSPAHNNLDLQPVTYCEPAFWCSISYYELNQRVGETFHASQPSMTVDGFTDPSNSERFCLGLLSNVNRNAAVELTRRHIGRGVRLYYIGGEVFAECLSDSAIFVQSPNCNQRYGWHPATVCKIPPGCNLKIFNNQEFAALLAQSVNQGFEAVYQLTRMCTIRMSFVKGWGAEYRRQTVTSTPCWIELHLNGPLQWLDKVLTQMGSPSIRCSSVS
Candida biofilm: kills Candida albicans biofilms | C. albicans biofilm + clotrimazole, Alamar Blue | inhibition, % at 6 µM | 0.14% of 85,000 active;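 active means inhibition above 20%; inactive means inhibition below 20%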;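 further: preformed 24 hr biofilms exposed to compound for 48 hr; 0% = biofilm without compound and 100% = blank killed by clotrimazole plus chlorhexidine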
HUVEC prolif 384: human endothelial cell proliferation inhibition; HUVEC proliferation, CellTiter-Glo luminescence, 72 h; stronger effect = lower value; viability, % at 10 µM (by protocol); 1.1% of 86,000 active; AID 648;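 active means viability at or below 30%; inactive means viability above 30%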;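 further: 100% = median luminescence of DMSO-only cell control wells on each plate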
Starred values were filed as active, the others as inactive; . = not tested or not shown; [ ] = remark or other dose. An excerpt. The share of hits here may be higher or lower than overall.

Each structure is followed by: Fibroblast inh, ERa SRC1 inh, ERa coact pot, ERb SRC1 inh, H69AR growth 86K, Smad3 inh, Candida biofilm, HUVEC prolif 384
> Cc1cc(NS(=O)(=O)c2ccc(NC(=O)Nc3cccc(Cl)c3)cc2)no1
    55, -6, 104, -2, 92, 11[fluorescence artefact?], 6, 76
> O=C(CN1C(=O)c2ccccc2C1=O)N1CCN(c2nnc(-c3ccccc3)c3ccccc23)CC1
    104, 2, 220*, 4[fluorescence artefact?], 78, -62[fluorescence artefact?], -5, 79
> COC(=O)CSc1nnc(-c2ccco2)n1-c1ccc(C)cc1
    96, 0, 121, -7, 93, -5, 11, 88
> CCOC(=O)c1csc(NC(=O)c2ccc(S(=O)(=O)N(CC)CC)cc2)n1
    101, -3, 120, 2, 89, 1[fluorescence artefact?], 7, 94
> O=C(Nc1ccc(Cl)cc1)NC1CCCC1Cc1ccco1 (configuration not stated)
    101, 6, 105, 0[fluorescence artefact?], 85, -7, -1, 64
> CCOc1ccc(C2/C(=C(/O)c3ccc(F)cc3)C(=O)C(=O)N2CCCN(C)C)cc1 (configuration not stated)
    98, -5, 90, -12, 92, 6, 5, 98
> COc1ccc(CCNC(=O)NC23CC4CC(CC(C4)C2)C3)cc1
    103, 0, 104, -6, 94, 3, 5, 85
> CCn1c(COc2ccc(C(C)C)cc2)nnc1SCC(=O)Nc1nccs1
    102, -6[fluorescence artefact?], 100[fluorescence artefact?], 0, 88, 12, 4, 95
> COc1c(C)cccc1C(=O)NC(=S)Nc1ccc2c(c1)Cc1ccccc1-2
    99, -1[fluorescence artefact?], 245*[fluorescence artefact?], 6[fluorescence artefact?], 90, 2[fluorescence artefact?], 4, 102
> CCOC(=O)COc1ccc(S(=O)(=O)NCC2CCCO2)cc1 (configuration not stated)
    92, -17, 90, -18, 86, 1, -6, 99
> Cc1ccc(NC(=O)C2CCN(S(=O)(=O)c3ccc(F)cc3)CC2)cc1
    97, 0, 92, -1, 76, 1, 2, 83
> COc1cc(S(=O)(=O)N2CCCCC2)ccc1NC(=O)/C=C/c1ccccc1
    92, -9, 91, -3, 91, -9, 6, 91
> Cc1cnc(NC(=O)c2ccco2)s1
    100, 8, 119, -2, 80, 0, 2, 84
> O=C(/C=C/NNC(=O)c1cccc(Br)c1)c1cccc(Br)c1
    76, 2, 91[fluorescence artefact?], -5, 78, -2, 1, 53
> O=C(NCC1(c2ccccc2)CCCC1)C(=O)N1CCOCC1
    102, -2, 111, -7, 96, -9, 8, 97

The closing 7 entries of the section before lead into the next:
Each structure is followed by: Fibroblast inh, ERa SRC1 inh, ERa coact pot, ERb SRC1 inh, H69AR growth 86K, Smad3 inh, Candida biofilm, HUVEC prolif 384
> COc1c(C)cccc1C(=O)NC(=S)Nc1ccc2c(c1)Cc1ccccc1-2
    99, -1[fluorescence artefact?], 245*[fluorescence artefact?], 6[fluorescence artefact?], 90, 2[fluorescence artefact?], 4, 102
> CCOC(=O)COc1ccc(S(=O)(=O)NCC2CCCO2)cc1 (configuration not stated)
    92, -17, 90, -18, 86, 1, -6, 99
> Cc1ccc(NC(=O)C2CCN(S(=O)(=O)c3ccc(F)cc3)CC2)cc1
    97, 0, 92, -1, 76, 1, 2, 83
> COc1cc(S(=O)(=O)N2CCCCC2)ccc1NC(=O)/C=C/c1ccccc1
    92, -9, 91, -3, 91, -9, 6, 91
> Cc1cnc(NC(=O)c2ccco2)s1
    100, 8, 119, -2, 80, 0, 2, 84
> O=C(/C=C/NNC(=O)c1cccc(Br)c1)c1cccc(Br)c1
    76, 2, 91[fluorescence artefact?], -5, 78, -2, 1, 53
> O=C(NCC1(c2ccccc2)CCCC1)C(=O)N1CCOCC1
    102, -2, 111, -7, 96, -9, 8, 97
> O=C(CN1CCOCC1)N1CCN(c2nnc(-c3ccccc3)c3ccccc23)CC1
    73, -6, 97[fluorescence artefact?], 6, 86, 6, -2, 95
> COC(=O)/C(NC(C)=O)=C(\C)c1ccc(Cl)cc1
    99, -8, 101, -5, 102, -3, 4, 96
> C=CCSc1nnc2c(n1)[nH]c1c(C)cccc12
    85, 6[fluorescence artefact?], 86[fluorescence artefact?], 21[fluorescence artefact?], 68, -4, -3, 91
> CCOc1ccc(NC(=O)CS(=O)CC(=O)NC2CCCc3ccccc32)cc1 (configuration not stated)
    97, -7, 113, -6, 100, -3, 3, 100
> Cc1cc2n(n1)C(c1cccs1)Nc1ccccc1-2 (configuration not stated)
    106, -2, 95, -2, 110, -7, 6, 103
> Cc1csc(NC(=O)c2cccc(S(=O)(=O)N3CCCCC3)c2)n1
    96, -2, 100, -9, 40, 2, -3, 102
> COc1ccc(NC(=O)c2ccc(S(=O)(=O)N3CCOCC3)cc2)c(OC)c1
    103, -15, 96, 5, 95, -4, 7, 85
> O=C(O)c1cccc(S(=O)(=O)N2CCSCC2)c1
    105, -11, 97, 9, 100, -6, -5, 93
> Cc1ccc(NC2SC(=O)N(CC(=O)O)C2=O)cc1 (configuration not stated)
    105, 9, 106, -3[fluorescence artefact?], 112, -4, 7, 88
> CCc1sc(C(=O)NC2CCN(C)CC2)cc1Br
    104, -1, 114, -9, 98, -3, 1, 89
> CC(C)OCCCNC(=O)NC12CC3CC(CC(C3)C1)C2
    97, -8, 136, 8, 90, 8, 9, 93
> CN(C1CCCCC1)S(=O)(=O)c1ccc(NC(=O)C2CCCCC2)cc1
    91, 9[fluorescence artefact?], 101, 7, 47, 3, 2, 62
> CCOC(=O)CSc1ccc2nnc(-c3cccnc3)n2n1
    99, -8, 95[fluorescence artefact?], -4, 101, 1, 3, 103
> O=C(Nc1ccc2c(c1)OCCO2)c1cccc(S(=O)(=O)N2CCCCC2)c1
    101, 6, 102, -1, 93, 8, 0, 102
> CCOc1ccccc1NC(=O)C1CCCCN1S(=O)(=O)c1ccc(F)cc1 (configuration not stated)
    98, -1, 100[fluorescence artefact?], -21, 65, 1, 3, 81
> CCCc1nc2ccccc2n2cc3c(=O)n(C)c(=O)n(C)c3c12
    94, -10, 112, -4, 92, -4, 7, 86
> CCOC(=O)CNC(=O)CSc1nnc(COc2ccc(Cl)cc2)n1CC
    97, -12, 103, -8, 96, 1, 1, 88
> COCCNc1nc2c(c(=O)n(C)c(=O)n2C)n1Cc1cccc(C)c1
    101, -4[fluorescence artefact?], 116[fluorescence artefact?], -2, 93, -1, 5, 107
> COc1ccc(C(=O)CCC(=O)O)c(C)c1
    98, -2, 89, -7, 96, 9, 5, 101
> Cn1c(COc2ccccc2)nnc1SCC(=O)Nc1ccc(S(N)(=O)=O)cc1
    100, -8, 103[fluorescence artefact?], -15, 95, 10, 4, 93
> CC(=O)c1ccc(NC(=O)Nc2ccccc2)cc1
    107, -3, 96, -1, 98, 13, -3, 102
> Cc1ccc(C2C3=C(NCCN=C3c3ccccc3)C(=O)N2c2ccccc2)cc1 (configuration not stated)
    95, 8[fluorescence artefact?], 112[fluorescence artefact?], 5[fluorescence artefact?], 42, 2, 3, 84
> Cn1c(C2CC(=O)N(Cc3ccccc3)C2)nc2ccccc21 (configuration not stated)
    107, -5, 116, -2, 88, -6, -2, 103
> CCCCC(=O)Nc1ccc(C(=O)NCCCn2ccnc2)cc1
    106, 8, 149, 6, 7.3*, 8, 6, 103
> Cc1ccc(C(=O)O)cc1S(=O)(=O)NCC1CCCO1 (configuration not stated)
    111, 9, 86, 7, 90, -8, 9, 104
> COc1cc(S(=O)(=O)N2CCCCCC2)ccc1Cl
    92, -1, 111, -2, ., 3, 3, 92
> O=C(Nc1ccc2c(c1)OCCO2)c1cccc(S(=O)(=O)N2CCOCC2)c1
    ., -10, 116, -14, 69, -12, 2, 83
> CCCCn1nnnc1NCc1cc(OC)c(OC)cc1OC
    102, -2, 119, -2, 94, 4, -2, 87
> CC(=O)Cc1nsc(NC(=O)c2c(-c3ccccc3Cl)noc2C)n1
    99, -3, 114, -10, 88, -18, 6, 104
> Cc1ccc(NC(=O)C2CCCN(c3ncccn3)C2)cc1F (configuration not stated)
    104, -10, 106, -26, 90, 14, 6, 89
> Cn1c(=O)c2c(nc(NCCc3ccccc3)n2Cc2ccc(F)cc2)n(C)c1=O
    95, -1, 91, 9[fluorescence artefact?], 80, -7, 13, 75
> CC(=O)C1=C(O)C(=O)N(CCC(=O)O)C1c1ccc(Cl)cc1Cl (configuration not stated)
    102, 3[fluorescence artefact?], 95, 11[fluorescence artefact?], 99, 2, 3, 90
> O=C1Nc2c(c(=O)[nH]c(=O)n2-c2ccccc2)C(C(F)(F)F)(C(F)(F)F)N1
    100, -11, 107, -5, 82, 11, -2, 97
> COc1cc(NC(=O)c2ccc(Br)o2)ccc1NC(=O)C(C)C
    110, -20, 110, -18, 77, 10, 4, 94
> CC(C)(C)n1nnnc1CN1CCN2CCCC2C1 (configuration not stated)
    106, -6, 92, -7, 88, -2, 3, 98
> COc1ccc(C2CC(=O)NC3=C2C(=O)CCC3)cc1Cl (configuration not stated)
    99, 3[fluorescence artefact?], 106, 0[fluorescence artefact?], 95, 14, 8, 113
> O=C(NCCCn1ccnc1)c1csc2ccccc12
    99, -10, 114[fluorescence artefact?], -5, 98, -3, 2, 88
> COc1ccc(CCN2C(=O)c3[nH]nc(-c4ccccc4O)c3C2c2ccccc2)cc1OC (configuration not stated)
    90, 17[fluorescence artefact?], 114, 27[fluorescence artefact?], 39*, -7, 1, 78
> CCOC(=O)C1CCN(C(=O)c2ccc(N(C)S(C)(=O)=O)cc2)CC1
    96, -2, 113, 6, 89, -1, 3, 89
> CN(C)c1ccc(-c2noc(C3CCN(S(=O)(=O)c4ccc(C(=O)O)cc4)CC3)n2)cc1
    101, 2, 131, -4, 95, 2, 10, 104
